Mtb MbtI inh – MbtI salicylate synthase inhibitors, primary screen, biochemical, fluorescence intensity | inhibition, %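 (about 17 µg/mL by stock and volumes)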 | AID 493033, 2011 | purified MbtI enzyme, fluorescence intensity read-out | P9WFX0 | 100,000 compounds, 0.89% hits;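 active means above 50% in both replicates, above 80% if mildly self-fluorescent; inactive means the rest, strongly fluorescent compounds included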;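 further: 0% = mean of negative and 100% = mean of positive controls; one replicate is shown; some compounds called inactive have numbers as strong as hits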
Target sequence (P9WFX0 whole entry, looked up): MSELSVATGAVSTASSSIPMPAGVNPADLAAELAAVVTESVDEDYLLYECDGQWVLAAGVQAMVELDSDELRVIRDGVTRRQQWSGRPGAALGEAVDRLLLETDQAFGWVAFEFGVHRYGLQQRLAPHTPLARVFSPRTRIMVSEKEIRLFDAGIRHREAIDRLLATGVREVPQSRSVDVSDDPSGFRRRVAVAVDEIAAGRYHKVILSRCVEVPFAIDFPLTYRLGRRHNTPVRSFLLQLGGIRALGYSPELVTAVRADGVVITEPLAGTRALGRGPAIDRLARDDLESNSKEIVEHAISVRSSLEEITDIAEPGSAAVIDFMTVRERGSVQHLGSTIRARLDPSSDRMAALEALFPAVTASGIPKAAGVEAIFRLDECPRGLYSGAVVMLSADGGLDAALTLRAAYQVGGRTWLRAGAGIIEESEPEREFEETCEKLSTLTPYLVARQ
* hit, by the source's call. Only part of the results is shown; the hit share may differ from the screen's.

How did Cc1cc(C)c(Cn2c3ccccc3c3cnn(CC(=O)O)c(=O)c32)c(C)c1 do in these assays?
Mtb MbtI inh: -17.6

Results for O=C(Nc1nc2ccccc2[nH]1)c1ccccc1F ?
Mtb MbtI inh: 0.8

What do the screens show for `C1COC(CNCC2CC2)C1` (configuration not stated)?
Mtb MbtI inh: -19.4

Results for Cc1ccc(C2OCC3(CO)COC(c4ccc(C)cc4)N23)cc1 (configuration not stated) ?
Mtb MbtI inh: -8.9

How did COc1cc2c(cc1OC)C1CC(=NO)C(CC(C)C)CN1CC2 (configuration not stated) do in these assays?
Mtb MbtI inh: -8.3

What do the screens show for `Cc1nn(-c2ccccc2)c(N2CCCCC2)c1/C=N/O`?
Mtb MbtI inh: -1.3

What do the screens show for `COc1ccccc1OCC(=O)Nc1nc(-c2cccs2)c(NC(=O)c2ccccc2)s1`?
Mtb MbtI inh: 2.4

What do the screens show for `COC(=O)Nc1ccc2c(c1)C(=O)NC2=O`?
Mtb MbtI inh: 64.2

What do the screens show for `Oc1ccccc1CC1CC2CCN1CC2` (configuration not stated)?
Mtb MbtI inh: 1.9

What do the screens show for `CC(NC(=O)c1ccc(Cl)cc1)C(=O)N1CCCCC1` (configuration not stated)?
Mtb MbtI inh: -1.2

Results for O=C(O)CCCC(=O)Nc1cccc(C(=O)O)c1 ?
Mtb MbtI inh: -6.9

How did Cc1ccc(NC(=O)c2c(O)c3ccccc3[nH]c2=O)c(C)c1 do in these assays?
Mtb MbtI inh: -4.0

How did NC(=O)C1(c2ccccc2)CCC(=O)N1c1ccccc1 (configuration not stated) do in these assays?
Mtb MbtI inh: -9.1

How did CCOC(=O)C1=C(NC(=O)CSc2nnnn2-c2ccccc2)SC2CN(C)CCC12 (configuration not stated) do in these assays?
Mtb MbtI inh: -9.4

What do the screens show for `O=C1C2CCC(C(O)C2)N1Cc1ccccc1` (configuration not stated)?
Mtb MbtI inh: -5.1

How did Cc1ccc(CNc2c(C(=O)O)cnn2Cc2ccc(C)cc2)cc1 do in these assays?
Mtb MbtI inh: -4.8

Results for Cc1cc(F)ccc1NCc1ccc2c(c1)OCCO2 ?
Mtb MbtI inh: 63.2

What do the screens show for `Cn1c(=O)c2c(nc(NCC3CCCO3)n2Cc2ccc(Cl)cc2)n(C)c1=O` (configuration not stated)?
Mtb MbtI inh: -7.4

Results for Cn1cnnc1-c1cccc(NS(=O)(=O)c2ccc(N3CCCC3=O)cc2)c1 ?
Mtb MbtI inh: -5.0

What do the screens show for `NC(=O)c1ccc(-n2nnnc2SCc2ccccc2)cc1`?
Mtb MbtI inh: -3.2

Quoted at random: 3 entries already listed, in no set order.
How did Cc1ccc(CNc2c(C(=O)O)cnn2Cc2ccc(C)cc2)cc1 do in these assays?
Mtb MbtI inh: -4.8

What do the screens show for `Oc1ccccc1CC1CC2CCN1CC2` (configuration not stated)?
Mtb MbtI inh: 1.9

What do the screens show for `CC(NC(=O)c1ccc(Cl)cc1)C(=O)N1CCCCC1` (configuration not stated)?
Mtb MbtI inh: -1.2

Other records
Results for CCCC(=O)Oc1c(Sc2ccccc2)c(C)nn1-c1ccccc1 ?
Mtb MbtI inh: 57.9*

What do the screens show for `CCOC(=O)c1sc2nc3n(c(=O)c2c1C)CCCC3`?
Mtb MbtI inh: -17.1

Results for O=C(O)Cn1nc2ccccc2n1 ?
Mtb MbtI inh: -2.5

How did CCN(CC)c1ncc2c(n1)CC(c1ccco1)CC2=O (configuration not stated) do in these assays?
Mtb MbtI inh: 7.5

What do the screens show for `O=C(COc1ccc2c(=O)c(-c3ccccc3)coc2c1)N1CCCCC1`?
Mtb MbtI inh: -0.5

How did COc1ccc(C(=O)c2ccccc2)c(OCC(=O)NC2CC2)c1 do in these assays?
Mtb MbtI inh: -7.1

What do the screens show for `C1=C(c2ccc3c(c2)c2c4n3CCNC4CCC2)CCC1` (configuration not stated)?
Mtb MbtI inh: -10.7

Results for O=C(Nc1nc2ccccc2n1CCN1CCCCC1)c1ccccc1 ?
Mtb MbtI inh: -8.0

How did CCOC(=O)Cn1c2c(sc1=O)C1c3ccccc3OCC1CS2 (configuration not stated) do in these assays?
Mtb MbtI inh: 52.2

Results for Cc1ccc(S(=O)(=O)N2C(=O)c3ccccc3C2=O)cc1 ?
Mtb MbtI inh: -15.2

What do the screens show for `CCn1nc(-c2cccnc2)nc2c(=O)n(C)c(=O)nc1-2`?
Mtb MbtI inh: -1.1

How did CC(C)c1ccc(NC(=O)C(NC(=O)/C=C/c2ccc3c(c2)OCO3)c2ccccc2)cc1 (configuration not stated) do in these assays?
Mtb MbtI inh: 77.6

Results for Oc1ccc(NCc2cccs2)cc1 ?
Mtb MbtI inh: -6.7

Results for O=c1cc(CSc2nnnn2-c2ccccc2)nc(Nc2ccc(F)cc2)[nH]1 ?
Mtb MbtI inh: -10.5

What do the screens show for `NCc1nc2cc3ccccc3cc2[nH]1`?
Mtb MbtI inh: 10.4

Results for O=C(O)CCCC(=O)N1CCc2ccccc21 ?
Mtb MbtI inh: -7.3

Results for C=CCn1c(SCC(=O)Nc2ccc(C(=O)OC(C)C)cc2)nnc1-c1ccco1 ?
Mtb MbtI inh: -11.7

How did CC1(C)Cc2cccc(OCC(=O)O)c2O1 do in these assays?
Mtb MbtI inh: -0.7

How did CCOC(=O)c1c(N(C(C)=O)C(C)=O)sc(=S)n1-c1ccccc1 do in these assays?
Mtb MbtI inh: -9.8

How did CC(C)(C)c1nc(CN2CCOCC2)ccc1O do in these assays?
Mtb MbtI inh: 0.6

Overlap with the part before: two compounds, followed by the next part.
How did CCOC(=O)c1c(N(C(C)=O)C(C)=O)sc(=S)n1-c1ccccc1 do in these assays?
Mtb MbtI inh: -9.8

How did CC(C)(C)c1nc(CN2CCOCC2)ccc1O do in these assays?
Mtb MbtI inh: 0.6

Results for C=CCNc1cnn(Cc2ccccc2)c(=O)c1Cl ?
Mtb MbtI inh: -2.4

What do the screens show for `O=C(CC(c1ccccc1)c1ccccc1O)N1CCCCC1` (configuration not stated)?
Mtb MbtI inh: -5.3

What do the screens show for `CCCCC(=O)Nc1cc2nn(-c3ccccc3)nc2cc1C`?
Mtb MbtI inh: -45.9

What do the screens show for `C/C(=C\c1nsc(Nc2ccc(F)c(Cl)c2)n1)N1CCC(C)CC1`?
Mtb MbtI inh: -7.0

Results for CCOC(=O)C(C(=O)Nc1nc2ccccc2s1)C1CCCCC1 (configuration not stated) ?
Mtb MbtI inh: -2.0

How did C=CCC1(/C=C/C)CCCCN1 (configuration not stated) do in these assays?
Mtb MbtI inh: -16.3

What do the screens show for `O=C(O)C1Sc2[nH]c(=O)sc2C2c3ccccc3OC(=O)C12` (configuration not stated)?
Mtb MbtI inh: 32.1

What do the screens show for `CC(=O)N1c2ccccc2C(=O)OC1c1cccnc1` (configuration not stated)?
Mtb MbtI inh: inactive

How did COc1cc(CNc2ccc(C)cc2)ccc1O do in these assays?
Mtb MbtI inh: 2.5

What do the screens show for `COc1ccc(N(C(C)C(=O)O)S(C)(=O)=O)cc1` (configuration not stated)?
Mtb MbtI inh: -7.2

How did O=C(c1ccccc1)c1c[nH]c2cc3c(cc2c1=O)OCO3 do in these assays?
Mtb MbtI inh: -16.9

What do the screens show for `N#CCc1ccc(NC(=O)COc2ccc3c(c2)CCC3)cc1`?
Mtb MbtI inh: -15.2

Results for CC(C)(C)C(O)CN1CCCC1 (configuration not stated) ?
Mtb MbtI inh: -5.0

What do the screens show for `CC(=O)N(c1ccc(C)cc1)C1(C(=O)NC2CCCC2)CCCCC1`?
Mtb MbtI inh: -2.8

How did CCCC12CN3CC(C)(CN(C1)C(=O)c1ccccc1C3=O)C2=O do in these assays?
Mtb MbtI inh: -11.9

How did COc1ccccc1C(=O)N1CCc2ccccc2C1 do in these assays?
Mtb MbtI inh: -9.7

Results for c1ccc2c(c1)CCNC2CNCc1ccc2c(c1)OCO2 (configuration not stated) ?
Mtb MbtI inh: -2.8

Results for Cc1nc(-c2ccccc2)c(-c2ccccc2)[nH]1 ?
Mtb MbtI inh: 49.9

Results for COC(=O)CN1C(=O)c2cccc3cccc1c23 ?
Mtb MbtI inh: -4.9

How did COc1ccc(C(=O)Nc2ccc3nc(N4CCN(c5ncccn5)CC4)cc(C)c3c2)c(OC)c1 do in these assays?
Mtb MbtI inh: -2.5

How did CCOC(=CNc1ccc2nsnc2c1)OCC do in these assays?
Mtb MbtI inh: -7.8

How did CNC(=O)CC(=O)Nc1ccc(C(=O)O)cc1 do in these assays?
Mtb MbtI inh: -13.5

What do the screens show for `O=c1oc2cc(S(=O)(=O)N3CCCC3)ccc2c2ccc(S(=O)(=O)N3CCCC3)cc12`?
Mtb MbtI inh: -9.5

How did CN(C)Cc1c(O)ccc2c(=O)c(-c3ccc(Cl)cc3)coc12 do in these assays?
Mtb MbtI inh: -249.7

How did COC(=O)CCc1c(C)nn(-c2ccccc2)c1C do in these assays?
Mtb MbtI inh: -8.6

What do the screens show for `CN=C1CC(C)(C)CC(=O)/C1=C(\O)CCC(=O)NC`?
Mtb MbtI inh: 6.5

Results for COc1ccc(C)cc1C(=O)C1CC(C(=O)O)C(C)(C)C1C (configuration not stated) ?
Mtb MbtI inh: -10.3

How did Cn1c(=O)c2c(nc(NC3CCCCC3)n2Cc2ccccc2F)n(C)c1=O do in these assays?
Mtb MbtI inh: -13.1

Results for O=C(c1ccccc1)C1CN(Cc2ccccc2)CCC1(O)c1ccccc1 (configuration not stated) ?
Mtb MbtI inh: -0.6

How did O=C1CCC(=O)N1CC(=O)N(c1ccccc1)c1ccccc1 do in these assays?
Mtb MbtI inh: -11.0

How did CCCOc1cccc(C(=O)Nc2ccc(Cc3ccncc3)cc2)c1 do in these assays?
Mtb MbtI inh: -9.6

How did COc1ccc2c(c1)c1ncn(C)c(=O)c1n2Cc1ccccc1 do in these assays?
Mtb MbtI inh: -78.7

What do the screens show for `COCn1c(-c2ccc(OC)cc2)nc2ccccc21`?
Mtb MbtI inh: -66.0

How did CCC1(C)OC(=O)N(C2CC(C)(C)NC(C)(C)C2)C1(C)O (configuration not stated) do in these assays?
Mtb MbtI inh: -12.9

How did Cn1c(=O)c2c(n3c(SCC(N)=O)nnc13)-c1ccccc1CC21CCCCC1 do in these assays?
Mtb MbtI inh: -0.3

What do the screens show for `CC1(C)CC(=O)C2=C(C1)Nc1ccccc1N(C(=O)C1CC1)C2c1ccco1` (configuration not stated)?
Mtb MbtI inh: -6.9

Results for Cc1ccc(OC(=O)c2cccc(C(=O)Oc3ccc(C)cn3)n2)nc1 ?
Mtb MbtI inh: -5.0

Results for CC1CCCCN1C(=O)c1ccc2c(c1)C(=O)N(CCC1=CCCCC1)C2=O (configuration not stated) ?
Mtb MbtI inh: -9.9

What do the screens show for `CCc1nc(-c2ccc(OC)c(OC)c2)cc2cc(OC)c(OC)cc12`?
Mtb MbtI inh: -44.0

How did O=C(NC1CCCCC1)c1cc2c(=O)[nH]c3ccccc3c2s1 do in these assays?
Mtb MbtI inh: -21.1

What do the screens show for `Cc1ncsc1CCSc1n[nH]c(=O)n1-c1ccccc1`?
Mtb MbtI inh: -9.4

Results for Cc1ccc(N2C(=O)CC(Sc3nnc(C)s3)C2=O)cc1 (configuration not stated) ?
Mtb MbtI inh: 13.9

Results for COc1ccc(-c2cc(=O)[nH][nH]2)cc1 ?
Mtb MbtI inh: -1.2

Results for N#Cc1c(Sc2ccccc2)ncc2cc3ccccc3nc12 ?
Mtb MbtI inh: -11.4

Results for CCOC(=O)C1C(=O)CC(=O)C(C(=O)OCC)C1c1ccccc1 (configuration not stated) ?
Mtb MbtI inh: 0.4

How did C=CCc1ccccc1OCC(O)CN(CC)CC (configuration not stated) do in these assays?
Mtb MbtI inh: -8.6

How did CCOC(=O)C1CCN(c2nnc(N3CCCC3=O)s2)CC1 do in these assays?
Mtb MbtI inh: -1.4

Results for CN(C)S(=O)(=O)c1ccc(C(=O)Nc2c3c(nn2C(C)(C)C)CS(=O)C3)cc1 (configuration not stated) ?
Mtb MbtI inh: 0.6

Results for CCc1cc2c(C)cc(=O)oc2c2c1OCC2=O ?
Mtb MbtI inh: -11.0

What do the screens show for `CCCCC1CCC(C(=O)NC(C(=O)O)C(C)C)CC1` (configuration not stated)?
Mtb MbtI inh: -12.6

Results for O=C1NC2=C(C(=O)c3ccccc32)C(c2ccccc2)S1 (configuration not stated) ?
Mtb MbtI inh: 0.6

What do the screens show for `Cc1ccc(NC(=O)C/C(N)=N/O)cc1`?
Mtb MbtI inh: -8.0

How did CC1(C)Cc2c(c(-c3ccccc3)nc(N3CCCC3)c2C(N)=O)CO1 do in these assays?
Mtb MbtI inh: 3.8

How did Cc1ccc(OCC(=O)N2CCC(N3CCCCCC3)CC2)cc1 do in these assays?
Mtb MbtI inh: -9.2

Results for CCOC(=O)C(C#N)C(c1ccco1)c1ccccc1OC (configuration not stated) ?
Mtb MbtI inh: -7.1

Results for CC(CN1CCCC1)OC(=O)c1ccccc1Br (configuration not stated) ?
Mtb MbtI inh: -19.2

What do the screens show for `CCCN(CCC)C(=O)CC(c1ccccc1)c1ccccc1O` (configuration not stated)?
Mtb MbtI inh: 2.6

What do the screens show for `C(=C\c1ccccc1)/CN1CCN(C/C=C/c2ccccc2)CC1`?
Mtb MbtI inh: -19.0

What do the screens show for `Nc1nc2ccccc2n1CCN1CCOCC1`?
Mtb MbtI inh: -9.1

Results for CCc1nn(CCCC(=O)NCc2ccc(OC)cc2)c(=O)c2cc3occc3n12 ?
Mtb MbtI inh: -9.0

What do the screens show for `CC1(C)CC(=O)c2c(noc2-c2ccccc2)C1`?
Mtb MbtI inh: -3.3

Results for COc1cccc(-c2nnc(NC(=O)c3ccc(S(=O)(=O)N4CCCCC4C)cc3)o2)c1 (configuration not stated) ?
Mtb MbtI inh: -3.5

Grouped by structure: the entries above containing a furan ring, fused or not (five)
How did CCN(CC)c1ncc2c(n1)CC(c1ccco1)CC2=O (configuration not stated) do in these assays?
Mtb MbtI inh: 7.5

Results for C=CCn1c(SCC(=O)Nc2ccc(C(=O)OC(C)C)cc2)nnc1-c1ccco1 ?
Mtb MbtI inh: -11.7

What do the screens show for `CC1(C)CC(=O)C2=C(C1)Nc1ccccc1N(C(=O)C1CC1)C2c1ccco1` (configuration not stated)?
Mtb MbtI inh: -6.9

Results for CCOC(=O)C(C#N)C(c1ccco1)c1ccccc1OC (configuration not stated) ?
Mtb MbtI inh: -7.1

Results for CCc1nn(CCCC(=O)NCc2ccc(OC)cc2)c(=O)c2cc3occc3n12 ?
Mtb MbtI inh: -9.0

High-throughput results: PubChem, ICCB-Longwood Screening Facility, Harvard Medical School
